Compound activity deposited in PubChem by Fisher Drug Discovery Resource Center.
NPYLR7 agonist: mosquito NPYLR7 agonism; HEK293T NPYLR7/Galpha15, GCaMP6s calcium fluorescence; activation, % at 10 µM; hit rate 0.15% among 270,000; AID 1259423; in the data active means activation above about 40%;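 further: 0% = vehicle and 100% = reference agonist at the receptor; some compounds past the cut are filed as inactive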
NPYLR7 agonist max-min: further read-out of NPYLR7 agonist, marked with its call; activation, %; measured here: Max-Min RFU normalised activation; some inactives read as strong as hits;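 span of the calcium signal over five minutes; 0% = vehicle and 100% = native peptide agonist; compound fluorescence can raise it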
An asterisk follows results filed as active; & = joins results of further samples. An excerpt, so the mix of outcomes need not match the whole.

SMILES | NPYLR7 agonist | NPYLR7 agonist max-min
CCOCCCN(CC(=O)N(CCc1ccccc1)Cc1ccc(C)o1)S(=O)(=O)c1ccc(Cl)cc1 | 16 | 10
Cc1ccc(-n2nnnc2CN2CCN(C(=O)c3cc(=O)c4ccccc4o3)CC2)cc1 | -2 | -2
COc1ccc(-n2c(SCc3ccc(C(=O)NCc4ccc5c(c4)OCO5)cc3)nnc2-c2cccc(OC)c2)cc1 | 28 | 24
CCCS(=O)(=O)NC(=O)C1(C)CCN1C(=O)C/C=C/c1ccccc1 (stereo not drawn) | 5 | 6
CC(C)S(=O)(=O)c1ccc(C(=O)N(Cc2ccncc2)c2nc3ccc(F)cc3s2)cc1 | -3 | -8
O=C(NCC1(c2ccccc2)CCOCC1)c1cn(CCN2CCCCC2)nn1 | 15 | 2
CC(C)(C)CC(=O)NS(=O)(=O)c1cccc2ncccc12 | -18 | -19
Cc1ccccc1C1N2CC3([N+](=O)[O-])CN1CC([N+](=O)[O-])(C2)C3(C)C (stereo not drawn) | 4 | 3
CC(=O)N1CCN(C(=O)CC(c2cccc3c2OCO3)c2c[nH]c3ccccc23)CC1 (stereo not drawn) | 4 | 15
CC(C)CNC(=O)C1(C)CCCN1C(=O)c1cncc(Br)c1 (stereo not drawn) | 7 | 2
COC(=O)c1cc(C(=O)OC)cc(S(=O)(=O)Nc2ccc(F)cc2F)c1 | 6&-1 | 1&64
CN(C)c1cccc(C(=O)N2CCN(c3ccc(NC(=O)c4ccco4)cn3)CC2)c1 | 33 | 18
COC(=O)C(Cc1ccccc1)NC(=O)c1ccc(CSc2nnc3ccccn23)cc1 (stereo not drawn) | 4 | 6
Cc1cc(NC(=O)CSc2nc(=O)n(CCN(C)C)c3c2CCCC3)no1 | -1 | 4
COc1ccc(OCC(O)CN(CCC(C)C)Cc2ccc(C)s2)cc1 (stereo not drawn) | 30 | 27
c1ccc(C2=N[C@@H](c3ccccc3)[C@@H](c3ccccc3)N2)cc1 | -4 | -7
Cc1ccccc1C(=O)NCCn1ncc2c(=O)n(Cc3ccccc3)cnc21 | -4 | -10
Cc1ccc(OC2(C(=O)NCCNc3cccnc3)CCNCC2)cc1 | -7 | -14
CCOc1ccc(/C=C2N=C(/C=C/c3ccc([N+](=O)[O-])cc3)OC/2=O)cc1 | -4 | -7
CCn1nc(C)c(CN(CCOC)C(=O)c2ccnc3ccccc23)c1C | 0 | -5
Brc1ccc(-c2nc(N3CCC(Cc4ccccc4)CC3)c3ccccc3n2)cc1 | 0 | 10
O=S1(=O)CCC(NC(=S)Nc2ccc(OC(F)F)cc2)C1 (stereo not drawn) | 11 | 14
Cc1cccc(-c2ncc(CN3CCCC(c4nc(CC(C)C)no4)C3)cn2)c1 (stereo not drawn) | 8 | -4
CC(C)Cc1c(O)nc(SCCN2CCOCC2)[nH]c1=O | -3 | 1
CCOC(=O)C1(C)CCN1C(=O)c1ccc(OC)cc1OC (stereo not drawn) | -1 | 0

Compound profiles (already shown).
CC(C)S(=O)(=O)c1ccc(C(=O)N(Cc2ccncc2)c2nc3ccc(F)cc3s2)cc1 is listed as NPYLR7 agonist: -3; NPYLR7 agonist max-min: -8
COC(=O)C(Cc1ccccc1)NC(=O)c1ccc(CSc2nnc3ccccn23)cc1 (stereo not drawn) is listed as NPYLR7 agonist: 4; NPYLR7 agonist max-min: 6

Part of the list above in order of molecular weight, rising:
SMILES | NPYLR7 agonist | NPYLR7 agonist max-min
CC(C)(C)CC(=O)NS(=O)(=O)c1cccc2ncccc12 | -18 | -19
CC(C)Cc1c(O)nc(SCCN2CCOCC2)[nH]c1=O | -3 | 1
Cc1ccccc1C(=O)NCCn1ncc2c(=O)n(Cc3ccccc3)cnc21 | -4 | -10
Cc1cccc(-c2ncc(CN3CCCC(c4nc(CC(C)C)no4)C3)cn2)c1 (stereo not drawn) | 8 | -4
Cc1ccc(-n2nnnc2CN2CCN(C(=O)c3cc(=O)c4ccccc4o3)CC2)cc1 | -2 | -2
COc1ccc(-n2c(SCc3ccc(C(=O)NCc4ccc5c(c4)OCO5)cc3)nnc2-c2cccc(OC)c2)cc1 | 28 | 24

Looked up one by one from the entries so far, 3 records:
SMILES | NPYLR7 agonist | NPYLR7 agonist max-min
Cc1cc(NC(=O)CSc2nc(=O)n(CCN(C)C)c3c2CCCC3)no1 | -1 | 4
CC(C)Cc1c(O)nc(SCCN2CCOCC2)[nH]c1=O | -3 | 1
CCCS(=O)(=O)NC(=O)C1(C)CCN1C(=O)C/C=C/c1ccccc1 (stereo not drawn) | 5 | 6

More records follow:
SMILES | NPYLR7 agonist | NPYLR7 agonist max-min
COc1ccc(CN2CCC2(C)C(=O)NC2CCN(Cc3ccccc3)CC2)c2ccccc12 (stereo not drawn) | -3 | -9
CCNC(=O)[C@@]1(OCc2cccc(F)c2)CC(OCc2ccc(C#N)cc2)[C@@H]2OC(C)(C)O[C@@H]2C1 (stereo partly drawn) | 29 | 19
CCCN(Cc1nnc(-c2ccco2)o1)C(=O)C=Cc1cc(C)n(-c2cc(C)on2)c1C | 6 | 8
CCC(O)CN(Cc1ccccc1)Cc1cccn1Cc1ccccc1C (stereo not drawn) | 29 | 24
Cc1ccc2nc(N(Cc3ccccn3)C(=O)c3cccc(S(C)(=O)=O)c3)sc2c1 | -4 | -7
Cc1c(Cl)cccc1NC(=S)NC(=O)CCN1C(=O)c2ccccc2C1=O | 2 | -8
O=C(CN1CCN(Cc2ccc(Cl)s2)CC1)Nc1cc(Cl)ccc1-n1cncn1 | -2 | -4
O=C(c1ccc(Br)cc1F)N1CCCc2ccccc21 | 9 | 3
CNC(=O)CN1c2ccccc2C(=O)N(C)C1c1ccc(C2CC2C)o1 (stereo not drawn) | -3 | -2
CCOC(=O)N1CCN(S(=O)(=O)N2CCc3sccc3C2)CC1 | 4 | 3
O=C(c1cn(CC2CCCCC2)nn1)N1CCN(C/C=C/c2ccccc2)CC1 | 12 | -1
CC(C)CCn1c(N2CCc3ccccc3C2)nc2c1c(=O)[nH]c(=O)n2C | 31 | 18
CN(C)c1nc(NN(c2ccccc2)c2ccccc2)nc(N(C)C)n1 | -5 | -11
CC(c1nc2ccccc2c(=O)n1-c1ccccc1)N(CCN(C)C)C(=O)Nc1cccc(Br)c1 (stereo not drawn) | -11 | 2
CN(C(=O)CC1C(=O)NCCN1Cc1c(F)cccc1Cl)C1CCOCC1 (stereo not drawn) | -10 | -10
O=[N+]([O-])c1ccc(Cn2c3[n+](c4ccc(C(F)(F)F)cc42)CCCCC3)cc1 | 2 | 0
CCN(CC)C(=O)c1ccc2sc([C@@H]3O[C@H](CO)[C@H](O)[C@H](O)[C@H]3O)nc2c1 | -1 | -3
O=C(c1cccc(F)c1)N1CCN(c2nc(-c3ccc(Cl)cc3)nc3ccccc23)CC1 | 17 | 12
COc1cc(-c2nc(Cn3cccn3)c(C)o2)cc2c1OCO2 | 3 | 2
C=CCN(Cc1cccn1Cc1ccc(F)cc1)CC(C)O (stereo not drawn) | -5 | 2
Cc1ccc2nc(N=C(N)N)nc(C)c2c1 | 6 | 5
COc1cccc(C2=NN(C(=O)c3ccco3)C(c3ccccc3O)C2)c1 (stereo not drawn) | -5 | -8
O=C(c1cccc(F)c1)N(Cc1nccn1Cc1ccc(Cl)cc1Cl)CC1CC1 | 3 | 11
CCCOc1ccccc1C1NC(=O)NC(C)=C1C(=O)OC1CCCC1C (stereo not drawn) | 4 | 5
Cc1ccc(NC(=O)CNCC(C)c2ccccc2)c(C)c1 (stereo not drawn) | -2 | -4

More structures.
SMILES | NPYLR7 agonist | NPYLR7 agonist max-min
CC(C)Cn1c(CN2CCC(Cc3ccccc3)CC2)nc2c1c(=O)n(C)c(=O)n2C | 2 | 2
c1cncc(-c2nccn2-c2ccc(OCc3ccco3)cc2)c1 | 24 | 11
O=C(c1ccccc1)N1CCN(C(=O)c2cccc3nccnc23)CC1 | 3 | 2
CC(C)(CNS(=O)(=O)c1cccc(F)c1)N1CCCCC1 | 3 | 1
CCCCN(C(=O)c1ccc2c(c1)OCCO2)C(C)CC (stereo not drawn) | 7 | 7
CCc1nc2ccc(C(=O)N(C)Cc3ccccc3)cn2c1N(CC)Cc1ccc(OC)c(OC)c1 | 22 | 16
O=C(CC12CC3CC(CC(Br)(C3)C1)C2)OCCN1CCOCC1 | 0 | -3
C=CCN(C(=O)c1ccc(-c2cccc(Cl)c2)s1)C1CCCCC1 | 2 | -1
Cc1ccsc1[C@@H]1CCN(C(=O)Cc2cn3ccsc3n2)C[C@H]1O | 7 | -1
Cc1ccc(C=Cc2nc(SCC(=O)Nc3ccc(S(N)(=O)=O)cc3)n[nH]2)o1 | 3 | 4
COCCn1c(C(=O)Nc2ccccc2C(N)=O)cc2c(=O)n(C)c(=O)n(C)c21 | -1 | -2
c1nc(Nc2ccc3c(c2)OCCCO3)c2c3c(sc2n1)CCC3 | 9 | 11
Cc1cc(=O)n2nc(Oc3ccc(C#N)cc3Cl)sc2n1 | 3 | 2
O=C(O)C1CC(=O)N(Cc2nc(-c3ccccc3)n[nH]2)C1 (stereo not drawn) | 19 | 10
COc1ccc(C(C)(C)C)cc1NC(=O)c1sccc1C | 2 | 0
COC(=O)C1CCN(C(=O)Cc2c(C)nc(SCc3ccccc3F)[nH]c2=O)CC1 | -8 | -14
COC(=O)c1c(NC(=O)CN(C)Cc2cccc(F)c2)sc2c1CCCC2 | 8 | 9
CN(CC(=O)NC(C)(C#N)C1CC1)c1ccc2ccccc2c1 (stereo not drawn) | -2 | -1
O=C1NCCCCC1Sc1nc2ccc(Cl)cc2[nH]1 (stereo not drawn) | 6 | -1
Cn1cc(C(=O)N2CCN(CC(=O)NCc3ccco3)CC2)c2nn(-c3ccccc3)c(=O)c-2c1 | -3 | -8
CC(NCCC1CCCO1)c1ccc(S(=O)(=O)N(C)C)cc1 (stereo not drawn) | 2 | 2
Cn1c(CCC(=O)Nc2ccc(F)cc2F)nc(=O)c2ccccc21 | -3 | -3
CCNC(=O)c1cnn(-c2ccccc2F)c1C | -1 | 0
Cc1cc(C)n(-c2cccc(CN(C)CC3CCN(Cc4ccc(C)o4)CC3)c2)n1 | 15 | 13
CC1CC1C(=O)Nc1ccnn1Cc1ccc(Br)cc1 (stereo not drawn) | -10 | -9

Later entries.
SMILES | NPYLR7 agonist | NPYLR7 agonist max-min
CCC(C(=O)Nc1cc(-c2ccc(Cl)cc2)nn1-c1ccc(OC)cc1)c1ccccc1 (stereo not drawn) | 17 | 8
Cc1cnc(C)c(N2CCN(Cc3cc(C(C)(C)C)n[nH]3)CC2)n1 | 5 | 3
CCc1ccc(S(=O)(=O)NCCOc2ccc(-c3ccccc3)nn2)cc1 | -1 | -10
CCOC(=O)c1nn(-c2ccc(F)cc2)c(=O)cc1N1CCN(C(=O)c2ccco2)CC1 | 8 | 1
CN(C)c1ccc(-c2cnc3ccc(NCc4cccs4)nn23)cc1 | -6 | -9
CN(C)C=NC1=NN(c2ccccc2)CC1 | 6 | 5
CCN(CC)CCCN=C1NC2CS(=O)(=O)CC2S1 (stereo not drawn) | 12 | 10
CC1(Cc2cc(Cl)ccc2C(F)(F)F)C(=O)Nc2ccc(OC(F)(F)F)cc21 (stereo not drawn) | 6 | 3
CC/C=C(/C)C(=O)N(CC(=O)NC)Cc1cccc(C(F)(F)F)c1 | -3 | -5
COc1cc2nc(-c3ccc(C)o3)cc(C(=O)NCCc3ccc(Cl)cc3)c2cc1OC | 6 | 4
Fc1ccc(-c2nnc(COn3nnc4ccccc43)o2)cc1 | 6 | 6
Cc1cccc(OCCNC(=O)N2CCN(S(=O)(=O)c3cccc(Br)c3)CC2)c1 | 11 | 9
O=C(NC1CCCN(CCCc2ccccc2)C1)c1cnccn1 (stereo not drawn) | 4 | 1
CCOC(=O)CCC(=O)N1CCC(Cc2ccc(C(F)(F)F)cc2)CC1 | 15 | 12
Cc1noc(C)c1NC(=O)NCC1CCN(Cc2ccccc2F)C1 (stereo not drawn) | -3 | -5
O=C1CSC(c2cccc(Br)c2)N1c1cccc(C(F)(F)F)c1 (stereo not drawn) | -5 | -12
CC(c1ccccc1F)N(C(=O)NCCC(=O)N(C)C)C1CC1 (stereo not drawn) | 2 | -1
CCn1c2ccccc2c2cc(CN(Cc3ccco3)C(=O)NCc3ccc(F)cc3)ccc21 | -19 | -28
Cc1ccnc(N(C)Cc2cc(C3CC3)n[nH]2)n1 | 12 | 1
COc1ccccc1N1CCn2c1nc1c2c(=O)n(C)c(=O)n1C | 4 | 0
CCOC(=O)C1(CCOc2ccccc2)CCN(C(=O)Cn2nc3ccccc3n2)CC1 | 2 | 0
CCn1cc(-c2nnc(SCC(=O)O)n2-c2cccc(Cl)c2)cn1 | 3 | -1
CC(C)c1nn(-c2ccc(Cl)c(Cl)c2)c(C(C)C)c1C(=O)N1CCCCC1 | -4 | 2
Cc1nc(C)c(C(=O)NCCn2ncc3c(N4CCCCC4)ncnc32)s1 | 12 | 9
O=C(c1ccc2nc(-c3ccccc3)c(-c3ccccc3)nc2c1)N1CCC(O)(c2ccccc2)CC1 | 0 | -4

(list continues)
SMILES | NPYLR7 agonist | NPYLR7 agonist max-min
CC1OC2(O)CCCCC2C(C#N)(C(N)=O)C1(C#N)C#N (stereo not drawn) | -4 | -8
COCC(=O)N1CCCCCC1C1CCN(Cc2cccc3cccnc23)CC1 (stereo not drawn) | 3 | 1
COc1cc(CNC(=O)Nc2ccc(Br)cc2)ccc1OC(F)F | -6 | -7
CC(=O)N1CCc2c(sc(NC(=O)c3ccc(C#N)cc3)c2-c2nc3ccccc3s2)C1 | 2 | 4
CC1CCc2[nH]nc(C(=O)N3CCn4nc(C(=O)NC5CC5)cc4C3)c2C1 (stereo not drawn) | 13 | 9
CCOc1ccc(-c2cnc(-c3cccc(OC)c3OC)[nH]2)cc1 | 0 | -4
C(=NNc1ncnc2sc3c(c12)CCC3)c1ccc2c(c1)OCO2 | -4 | -8
CC1(C)Cc2cc(CNC(=O)C3CCC(=O)N(Cc4ccccn4)C3)ccc2O1 (stereo not drawn) | -4 | -3
CNc1cncc(-c2ccc(CN3CCOCC3)cc2)n1 | 4 | 1
O=C1COc2ccc(C(=O)CSc3nnnn3C3CC3)cc2N1 | 7 | 8
CC1CCC2C(=O)N(c3cccc(OS(=O)(=O)c4ccccc4)c3)C(=O)C2C1 (stereo not drawn) | -10 | -12
